KSHV LANA nucl: inhibitors of KSHV LANA binding to nucleosomes | FITC-LANA1-23 / chicken nucleosome fluorescence polarization; stronger effect = lower value | z-score (test concentration not listed) | 51,000 tested, 0.3% active;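 active = both repeat wells score below -2 in polarization z-score versus plate sample wells, excluding overly bright wells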;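 also: 100 nL library stock added to about 30 µL; numbers are from one replicate; some results filed as inactive read as strong as hits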
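Material: Purified chicken nucleosomes with FITC-labelled LANA N-terminal peptide (1-23) | Reagent: 50 nM FITC-LANA1-23 probe | Medium: TEN-BT buffer, pH 7.5 | Times: 10–45 min incubation at room temperature | Detection: Fluorescence polarization | Replication: Duplicates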
BasE inh: BasE siderophore biosynthesis inhibition; purified BasE, fluorescence polarization binding displacement; inhibition, % (no concentration beside the values); 84,000 tested, 0.1% active; AID 485350;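 active = both replicates above 25% with normal brightness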;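 also: 0% = negative plate control signal and 100% = positive plate control signal; stock transfer was 100 nL into about 30 µL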
Active calls of the source: *; . = no result given.

SMILES	KSHV LANA nucl	BasE inh
Cc1nc(COC(=O)c2cccc(S(=O)(=O)N3CCc4ccccc43)c2)cs1	.	1.5
COC(=O)c1sccc1-c1ccc(/C(C)=N/NC(N)=O)o1	-0.35	3.0
COc1ccc2[nH]c3nc(=S)[nH]nc3c2c1	.	2.0
CC1=C(C#N)C(c2ccccc2C(F)(F)F)C2=C(CCCC2=O)N1 (stereo not given)	0.027	-0.5
CCN=C1S/C(=C\c2ccc(-c3cccc(C(=O)O)c3)o2)C(=O)N1CC	.	-6.5
Cc1cc(NC(=O)NN2CCOCC2)nn1-c1c(Cl)cccc1Cl	.	0.8
O=C(CN1C(=O)CS/C1=C\c1nc2ccccc2s1)c1cc2ccccc2o1	.	-1.3
NCC1OC(O[C@@H]2C(O)[C@H](OC3C(O)C(N)CC(N)C3OC3OC(CO)C(O)C(O)C3N)O[C@@H]2CO)C(N)C(O)C1O (stereo not given in full)	0.69	0.2
Cc1cc(C(=O)OCc2nc(N)nc(N)n2)c2ccccc2n1	.	2.3
c1ccc2[nH]c(CNc3ncnc4sccc34)nc2c1	.	0.6
CS(=O)(=O)N1CCCc2cc(C(=O)NCC(=O)Nc3ccc(F)c(F)c3)ccc21	.	1.2
CCOC(=O)c1ccc2c(c1)C(=O)N(c1ccccc1OC)C2=O	-0.65	1.0
CC1CCCC(C)N1/N=C/c1ccccc1OC(F)F (stereo not given)	.	2.4
CC(=O)Oc1ccc2c(=O)c(-c3nc4ccccc4n3C)c(C)oc2c1	.	3.0
CCOc1ccc(OCC)c(S(=O)(=O)N2CCC(C)CC2)c1	0.083	-0.6
c1ccc(N(c2ccccc2)c2nc(-c3ccco3)cs2)cc1	.	1.4
CCOC(=O)c1sc(SCc2cccc(Cl)c2)c(S(=O)(=O)C(C)C)c1-n1cccc1	0.35	-1.0
Cc1ccc(S(=O)(=O)NC2CCCCC2n2cc(-c3ccccc3)nn2)cc1 (stereo not given)	0.37	-0.1
CCOC(=O)c1sc2nc(C)nc(N(C)Cc3ccccc3)c2c1C	.	2.8
O=C(Cn1cnc2ccccc21)NC1CCCC1	2.6	2.2

Part of the list above, with two lines to a compound.
Screens in order: KSHV LANA nucl, BasE inh
- COC(=O)c1sccc1-c1ccc(/C(C)=N/NC(N)=O)o1
    -0.35, 3.0
- COc1ccc2[nH]c3nc(=S)[nH]nc3c2c1
    ., 2.0
- CC1=C(C#N)C(c2ccccc2C(F)(F)F)C2=C(CCCC2=O)N1 (stereo not given)
    0.027, -0.5
- CCN=C1S/C(=C\c2ccc(-c3cccc(C(=O)O)c3)o2)C(=O)N1CC
    ., -6.5
- Cc1cc(NC(=O)NN2CCOCC2)nn1-c1c(Cl)cccc1Cl
    ., 0.8
- O=C(CN1C(=O)CS/C1=C\c1nc2ccccc2s1)c1cc2ccccc2o1
    ., -1.3
- NCC1OC(O[C@@H]2C(O)[C@H](OC3C(O)C(N)CC(N)C3OC3OC(CO)C(O)C(O)C3N)O[C@@H]2CO)C(N)C(O)C1O (stereo not given in full)
    0.69, 0.2
- Cc1cc(C(=O)OCc2nc(N)nc(N)n2)c2ccccc2n1
    ., 2.3
- c1ccc2[nH]c(CNc3ncnc4sccc34)nc2c1
    ., 0.6
- CS(=O)(=O)N1CCCc2cc(C(=O)NCC(=O)Nc3ccc(F)c(F)c3)ccc21
    ., 1.2
- CCOC(=O)c1ccc2c(c1)C(=O)N(c1ccccc1OC)C2=O
    -0.65, 1.0
- CC1CCCC(C)N1/N=C/c1ccccc1OC(F)F (stereo not given)
    ., 2.4
- CC(=O)Oc1ccc2c(=O)c(-c3nc4ccccc4n3C)c(C)oc2c1
    ., 3.0
- CCOc1ccc(OCC)c(S(=O)(=O)N2CCC(C)CC2)c1
    0.083, -0.6

(continued)
SMILES	KSHV LANA nucl	BasE inh
Clc1ccc2c(N3CCN(c4ncccn4)CC3)ccnc2c1	.	-0.5
O=C(O)Cn1c(C(F)(F)F)nc2ccccc21	-0.53	.
O=C(c1ccc(Cl)cc1)N1CCc2c([nH]c3ccccc23)C1C(F)(F)F (stereo not given)	.	0.8
Cc1cc(=O)n2ccccc2c1C#N	.	1.3
O=C(Nc1cccc(N2C(=O)C=CC2=O)c1)c1cccs1	-0.38	-2.5
CC(=O)Oc1ccc2c(=O)c(-c3ccccc3)c(C(F)(F)F)oc2c1	.	0.6
Cc1c2cnn(-c3ccccc3)c(=O)c2c(C)n1C(C)C(=O)Nc1nccs1 (stereo not given)	3	-3.3
O=C(Nc1ccccc1)c1ccccc1O	1.3	.
CCCN1C(=O)C(NC(=O)c2ccco2)(C(F)(F)F)N=C1c1ccccc1 (stereo not given)	0.35	0.0
O=C(Nc1ccc(F)cc1F)c1cccnc1Sc1cccs1	.	-1.8
O=C(Oc1ccc(Cl)cc1)c1c(-c2ccccc2)nnc2ccccc12	.	0.0
C=CCc1cccc2cc(C(=O)N3CCCCC3)c(=O)oc12	-0.12	3.1
CCC1(CC)Cc2ccccc2-c2nc(-c3ccccc3)oc(=O)c21	.	0.1
COC(=O)c1sc(NC(=O)CSc2n[nH]c(-c3cccs3)n2)c(C(=O)OC)c1C	.	-6.9
O=C(c1noc2c1CCCC2)N1CCC(c2c[nH]c3ccccc23)(c2c[nH]c3ccccc23)CC1	-0.44	1.1
CN(c1ccnc(C(=O)NCCN2CCOCC2)c1)S(=O)(=O)c1ccccc1	-0.68	-0.9
Cc1c(C(=O)Nc2ccc(S(=O)(=O)N3CCCCCC3)cc2)oc2ccc(F)cc12	0.26	-0.2
CN(C)C(=O)CSc1nnc(-c2ccccc2O)n1Cc1ccccc1	0.26	-0.2
CCN1CCN(C(=O)Nc2ccc(Cl)c(Cl)c2)CC1	-0.6	-3.5
COc1ccc(-n2nc(C)c3sc(C)nc3c2=O)cc1	-0.95	-2.0
Cc1noc(C)c1CC(=O)Nc1ccc2c(c1)OCCCO2	.	-0.4
Cc1ccc(C)n1-c1ccc(C(=O)N2CCNC(=O)C2)cc1	.	1.2
CCNC(=O)/C=C/c1ccc(C(C)(C)C)cc1	-0.59	-1.4
CC(C)CCNc1nc2c(c(=O)[nH]c(=O)n2C)n1C(C)C	-0.41	3.5
N#CC(Cc1ccccc1)Sc1nnc(-c2ccco2)n1-c1ccccc1 (stereo not given)	.	-2.5
COC(=O)c1ccc2c(c1)sc(=NC(=O)c1ccc(S(=O)(=O)N3CCCC3)cc1)n2C	1.1	0.1
COCC(C)n1c(C)cc(C(=O)CSC2=N/C(=C\c3ccco3)C(=O)N2c2ccc(OC)c(Cl)c2)c1C (stereo not given)	.	-5.4
Brc1ccc2nc[nH]c2c1	0.56	-2.3
NNC(=O)CSc1nc2ccccc2o1	-1.1	0.9
O=C(COCC(=O)Nc1nc(-c2ccncc2)cs1)Nc1nc(-c2ccncc2)cs1	-0.0095	1.1
CC(=O)N[C@H]1[C@H](Oc2ccccc2)O[C@@H]2COC(c3ccccc3)O[C@H]2[C@@H]1O (stereo not given in full)	-0.87	-1.1
OCCN1CCN(CC/C=C2/c3ccccc3Sc3ccc(Cl)cc32)CC1	-0.098	-7.2
Cc1nn(-c2ccccc2)c2sc(C(=O)N3CCOCC3)cc12	-0.0005	3.7
Cc1nn(-c2ccccc2)c(C)c1CN(C)C(=O)CNC(=O)c1cccs1	.	3.1
NC(=O)C1CCCCN1Cc1cc2c(cc1O)CCC2 (stereo not given)	.	0.3
CCC1(C)CC(C(=O)c2cccc(C)c2)CCO1 (stereo not given)	-0.95	1.3
COC(=O)Nc1nc2c(C)cccc2s1	0.26	-2.8
Cc1oc(C(C)(C)C)cc1-c1cc(NS(=O)(=O)c2ccc(Cl)cc2)n[nH]1	0.94	-1.7
O=C(Cn1cnnn1)Nc1ccc(Sc2ccc(Br)cc2)cc1	.	0.3
CC(C)n1nccc1N(CC(=O)N(C)C1CCCCC1)S(=O)(=O)c1ccccc1	.	0.3
NC[C@H]1O[C@H](O[C@H]2C(O[C@@H]3O[C@H](CO)[C@@H](O)[C@H]3O)[C@@H](O)[C@H](N)C[C@@H]2N)[C@H](N)[C@@H](O)[C@@H]1O (stereo not given in full)	0.44	-3.2
Cc1ccc(NC(=O)COC(=O)c2ccc(S(=O)(=O)NCCC#N)cc2)cc1	.	0.1
COc1ccc2cc(/C=N/NC(=O)CN3CCOCC3)c(Cl)nc2c1	-0.15	5.0
CCn1c(=O)[nH]c2cc(C(=O)N3CCN(c4ccccc4)CC3)ccc2c1=O	0.16	-1.7
COc1ccc(S(=O)(=O)N2CCCCC2)cc1-c1nnc2c3ccccc3c(C)nn12	0.041	-2.8
O=c1c2cnn(CCO)c2ncn1C/C=C/c1ccccc1	-0.21	-2.7
N#Cc1ccc(C(=O)n2nc3c4c(cccc42)C(=O)c2ccccc2-3)cc1	.	2.4
COC(=O)c1ccc(Cn2cnc3c(nnn3-c3cc(C)cc(C)c3)c2=O)o1	-0.46	-0.1
Cc1cc(N2CCOCC2)c2c(N)cc(C)c(C)c2n1	.	1.1
CCN(CC)c1nc2ccccc2[nH]c1=O	.	-2.6
COc1ccc(C2NC(=O)c3ccccc3N2)cc1 (stereo not given)	1.7	-3.4
CCCN(CCC)C(=O)C1CCCN1/C=C/C(=O)C(F)(F)F (stereo not given)	.	1.4
CC(C(=O)Nc1ccc(CN2CCOCC2)cc1)n1sc2ccccc2c1=O (stereo not given)	-0.85	0.7
Cc1ccc(OCC(=O)NCc2ccccc2)cc1	.	0.4
N#CCSc1ccccc1NC(=O)COC(=O)c1ccc(CN2CCCC2=O)cc1	.	-5.9
CCc1cccc(N2C(=O)C(Cc3ccccc3)N=C2N(Cc2ccco2)C2CCCC2)c1 (stereo not given)	-0.12	-0.8
CCN(Cc1nc2cc(Cl)ccc2c(=O)[nH]1)C(=O)c1cccc(NC(C)=O)c1	.	-0.7
CCC(=O)N1CCc2cc(S(=O)(=O)Nc3ccc(OC(F)(F)F)cc3)ccc21	-0.095	1.2
C[C@@H](C(=O)OCC(N)=O)N1C(=O)C2CC=CCC2C1=O (stereo not given in full)	.	-2.4
CCCS(=O)(=O)N1CCN(C2CCN(C(=O)OCC)CC2)CC1	.	-2.1

Following part:
SMILES	KSHV LANA nucl	BasE inh
Cc1ccc(S(=O)(=O)N2CCOCC2)cc1C(=O)OCC(=O)N1CCc2ccccc2C1	.	-2.9
CC(=O)N1N=C(c2c(-c3ccccc3)c3cc(Cl)ccc3[nH]c2=O)CC1c1ccco1 (stereo not given)	.	1.1
O=S(=O)(c1cccc(Cl)c1Cl)N1CCN(c2ncccn2)CC1	.	-1.0
CC(C)=CCC/C(C)=C/CO	0.64	-0.4
O=C(CN1CCCCC1)NC(=O)NC1CCCCC1	.	15
CCOC(=O)N1CCN(CC(=O)NC(C)C)CC1	.	1.1
Cc1ccc2c(c1)N(CC(=O)NC1CCCc3ccccc31)C(=O)c1cccnc1O2 (stereo not given)	-0.57	1.8
Cc1noc(C)c1COC(=O)CCc1nc2cc(C(F)(F)F)ccc2n(Cc2ccccc2)c1=O	.	-0.1
CC(C)(C)c1ccc(-c2cc3ccccn3c2)cc1	.	-0.1
Cc1onc(-c2c(Cl)cccc2Cl)c1NC(=O)Oc1ccc(CC#N)cc1	.	5.3
CCN=C1Cn2c(nc3scc(-c4ccccc4)c3c2=O)CN1CC	.	-0.3
O=C1CC(N2CCN(S(=O)(=O)c3ccc(Cl)cc3)CC2)C(=O)N1CCc1ccccc1 (stereo not given)	.	0.9
Cc1cccc(C(=O)N[C@@H]2C(=O)Nc3c(c(C)nn3C)[C@H]2c2ccccc2)c1	.	2.0
CN1CC(C(=O)O)CC1=O (stereo not given)	-0.17	-0.2
COc1ccc(C(=O)N(CC(=O)NC2CCCC2)C2CCCCC2)cc1OC	0.83	0.0
CC(C)=C1C(=O)NN(c2ccccc2)C1=O	2.4	-2.3
CC1=Cn2c(nc3ccccc3c2=O)CN1NC(=O)NC1CCCCC1	.	0.6
Cc1ncc(CO)c(/C=N/O)c1O	.	0.6
CCOC(=O)C1CCN(c2cc(C(F)(F)F)nc3ccc(C)cc23)CC1	.	1.6
CCOC(=O)CN1C(=O)N(Cc2ccc(F)cc2)S(=O)(=O)c2ccccc21	0.44	-0.1
COC(=O)C1=C(C)NC(=O)NC1c1cc2c(cc1Cl)OCO2 (stereo not given)	0.62	-6.7
COC(=O)c1sccc1N/N=C(\C#N)S(=O)(=O)c1cccs1	-0.83	0.6
Cc1cc2oc(=O)cc(-c3cc4ccccc4o3)c2cc1OCC(N)=O	-0.52	-0.3
CCCn1c(=N)n(CC(=O)C(C)(C)C)c2ccccc21	-0.65	-0.3
Cc1cc(C)c(N=C(NN)N(C)C)cc1C	.	1.9
NC(=O)CSc1nc2c(sc3ccccc32)c(=O)n1CCCN1CCOCC1	-0.31	-9.4
O=C1S/C(=C/c2ccccc2Cl)C(=O)N1c1ccccc1	.	2.6
COc1ccc(-n2nc3ccc(NC(=O)c4ccc(-c5ccccc5)cc4)cc3n2)cc1	.	0.3
O=C(O)c1cnn(-c2ccccc2)c1	.	0.2
COCCCn1c(-c2c(C)oc3ccccc23)cs/c1=N\S(=O)(=O)c1ccccc1	.	-0.7
CC(NC(=O)CSCc1cnn(-c2ccccc2)c1-n1cccc1)c1ccccc1 (stereo not given)	0.14	1.5
Cc1cc2nc(NCC(C)O)c3ccccc3n2n1 (stereo not given)	.	2.1
CCOC(=O)CSc1nc2cc3c(cc2c(=O)n1CCCC(=O)NCc1ccc(OC)cc1)OCO3	-0.048	1.8
CCN(c1ccccc1)S(=O)(=O)c1ccc2c(c1)N(C(C)=O)CC(C)O2 (stereo not given)	-1.3	0.2
O=C(O)CCCc1nc2cc3ccccc3cc2[nH]1	0.033	2.5
O=C(O)CNc1ccc(C(=O)O)cc1	.	3.1
Cc1ccccc1NC(=O)C1C2C3CCC(C3)C12 (stereo not given)	-0.94	-0.5
Cc1ccc2c(CC(=O)NCC(C)C)coc2c1	.	-0.9
COC(=O)CSc1ncnc2ccccc12	.	2.8

Bioassay records: PubChem BioAssay, ICCB-Longwood Screening Facility, Harvard Medical School

The list is partial; rates above refer to the full screens.
